# FPR ligand – human FPR ligands by binding competition, primary screen, cell-based, FPRL1 counter-screen, flow cytometry; fMet-Leu-Phe receptor (Homo sapiens), P21462; FPR-expressing cells, fluorescent ligand binding; inhibition, %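 (tested at 6.7 µM)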; 24,000 compounds, 0.74% hits; AID 440, 2006;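 note: 0% = buffer wells and 100% = receptor blocker peptide wells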
# Target sequence (P21462 whole entry, looked up): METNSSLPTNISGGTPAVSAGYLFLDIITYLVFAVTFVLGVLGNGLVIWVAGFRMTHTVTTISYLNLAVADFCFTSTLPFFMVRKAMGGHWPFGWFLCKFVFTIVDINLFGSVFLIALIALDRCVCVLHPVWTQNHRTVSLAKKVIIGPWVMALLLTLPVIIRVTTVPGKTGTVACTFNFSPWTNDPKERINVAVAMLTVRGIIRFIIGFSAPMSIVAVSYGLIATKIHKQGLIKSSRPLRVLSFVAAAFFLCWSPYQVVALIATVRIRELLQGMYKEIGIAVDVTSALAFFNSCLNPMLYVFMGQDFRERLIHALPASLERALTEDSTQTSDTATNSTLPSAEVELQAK
# VCAM-1 down – inhibitors of TNFa-induced VCAM-1 surface display, cell-based, plate reader, pooled HUVEC, TNFa stimulus (AID 454); HUVEC TNFa-induced VCAM-1 surface immunofluorescence, plate reader; numbers were filed only for top-ranked candidate wells; inhibition, % at 5 µM; 10,000 compounds, 0.2% hits;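 active = compound among top-ranked inhibitors of TNF-induced VCAM-1 adhesion protein staining, with the hit upheld by image or statistical review; inactive = the rest, including hits rejected on review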;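 note: 0% = TNFa with vehicle and 100% = cells without TNFa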
# VCAM-1 down imaging – inhibitors of TNFa-induced VCAM-1 surface display, imaging, high-content imaging, pooled HUVEC, TNFa stimulus (AID 456); HUVEC TNFa-induced VCAM-1 surface expression, immunofluorescence imaging; numbers were filed only for top-ranked candidate wells; inhibition, % at 5 µM; hits with a dose series show IC50 in µM; 10,000 compounds, 0.2% hits;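 active = top tenth filtered wells with inhibition above zero that passed visual or statistical confirmation; inactive = the rest, including hits rejected on review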;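 note: 0% = stimulated vehicle wells and 100% = unstimulated cells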
# VCAM-1 augmentation – enhancers of VCAM-1 display on endothelial cells, imaging, high-content imaging, pooled HUVEC, TNFa stimulus (AID 457) | calls only | 10,000 compounds, 0.2% hits | Pooled HUVEC, TNFa-induced VCAM-1 immunofluorescence imaging; hits of this screen are not shown here;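 active = a top-ranked rise in VCAM-1 staining upheld on image or statistical review; inactive = the rest, including candidates rejected on review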;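 note: compounds tested at 5 µM in the well; cells exposed to compound for 24 hours before fixing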
# FPRL1 binder – human FPRL1 ligands by binding competition, primary screen, cell-based, FPR counter-screen, flow cytometry; FPRL1-expressing cells, fluorescent ligand binding inhibition; 24,000 compounds, 0.3% hits; N-formyl peptide receptor 2 (Homo sapiens), P25090; inhibition, %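 (tested at 6.7 µM)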; AID 441, 2006;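 note: 0% = buffer alone and 100% = receptor blocker peptide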
# Target sequence (P25090 whole entry, looked up): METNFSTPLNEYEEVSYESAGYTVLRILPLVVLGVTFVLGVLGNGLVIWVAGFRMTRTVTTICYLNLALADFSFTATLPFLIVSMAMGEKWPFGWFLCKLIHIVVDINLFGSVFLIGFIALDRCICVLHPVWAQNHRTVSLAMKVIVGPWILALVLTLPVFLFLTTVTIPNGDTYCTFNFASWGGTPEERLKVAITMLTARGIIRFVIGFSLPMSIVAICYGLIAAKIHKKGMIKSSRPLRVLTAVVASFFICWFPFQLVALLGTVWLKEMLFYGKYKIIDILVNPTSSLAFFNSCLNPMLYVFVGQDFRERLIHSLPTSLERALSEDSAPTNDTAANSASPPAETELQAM
# The depositor's hits bear a star; i = inactive; ? = inconclusive; . = not tested or not shown.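 Rule for the calls, unless noted: active = mean above 30%; inconclusive = self-fluorescent; inactive = the rest.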 Only part of the results is shown; count on the stated rates, not on these rows.
SMILES,FPR ligand,VCAM-1 down,VCAM-1 down imaging,VCAM-1 augmentation,FPRL1 binder
Cc1cc(C)c(C(=O)CC2(O)C(=O)Nc3ccccc32)cc1C (centres undefined),-4,.,.,.,-6
O=C(CN1CCC(NC(=O)c2ccc(F)cc2)CC1)NCc1ccccc1F,-6,i,i,i,-6
CCCc1cc2c(cc1NS(=O)(=O)c1ccc(CCNC(C)=O)cc1)OCO2,4,.,.,.,-2
CC1CCCCN1C(=O)CSc1nc2ccsc2c(=O)n1Cc1ccccn1 (centres undefined),13,.,.,.,11
CCC(C)(C)n1nnnc1C(c1ccc(OC)c(OC)c1)N1CCN(c2ccccc2)CC1 (centres undefined),-1,i,i,i,-4
O=C(NCCN1CCN(c2ccccc2F)CC1)C1CC(=O)N(C2CCCC2)C1 (centres undefined),-1,.,.,.,2
Cc1noc(/C=C/N(C)C)c1S(=O)(=O)N1CCCC(C(=O)N2CCc3ccccc32)C1 (centres undefined),0,i,i,i,-5
CCOC(=O)N1CCN(C(=O)c2ccc3c(c2)ncn3C2CCCC2)CC1,4,.,.,.,2
CCOC(=O)C1CCN(c2c(NCCCN(CC)c3ccccc3)c(=O)c2=O)CC1,-31,i,i,i,-2
C=CCOc1ccc(/C(CC)=N/O)c(OC)c1,-22,i,i,i,-33
Cc1cc(C)nc(SCC(=O)Nc2ncc3c(n2)CCCC3=O)n1,-3,i,i,i,-5
CCc1ccc(NC(=O)c2cccnc2)cc1,6,i,i,i,0
Nc1cc(Cl)ccc1Oc1ccccc1,-2,.,.,.,-12
COc1ccc(Cl)cc1NC(=O)Cn1cccc1,2,.,.,.,-2
COC(=O)C1=C(N)Oc2cc(C)n(Cc3ccncc3)c(=O)c2C1c1cccnc1 (centres undefined),-1,i,i,i,4
O=C(CSc1nc(-c2ccco2)cc(C(F)(F)F)n1)NCCCn1ccnc1,-6,i,i,i,-3
CC1(C)NC(=O)N(CC(O)CN2CCCCC2)C1=O (centres undefined),-1,i,i,i,2
COc1ccc(-c2noc(CSc3nc(N)c(-c4ccccc4)c(=O)[nH]3)n2)cc1OC,2,i,i,i,-4
Cc1noc(C(=O)Nc2ccc3c(c2)OCO3)c1Cl,2,i,i,i,-2
Cc1ccc(-c2cc(C(F)F)nc(NCc3cccnc3)n2)cc1,-3,i,i,i,-14

# Already shown: an excerpt of the list.
SMILES,FPR ligand,VCAM-1 down,VCAM-1 down imaging,VCAM-1 augmentation,FPRL1 binder
COc1ccc(Cl)cc1NC(=O)Cn1cccc1,2,.,.,.,-2
COC(=O)C1=C(N)Oc2cc(C)n(Cc3ccncc3)c(=O)c2C1c1cccnc1 (centres undefined),-1,i,i,i,4
O=C(CSc1nc(-c2ccco2)cc(C(F)(F)F)n1)NCCCn1ccnc1,-6,i,i,i,-3
CC1(C)NC(=O)N(CC(O)CN2CCCCC2)C1=O (centres undefined),-1,i,i,i,2
COc1ccc(-c2noc(CSc3nc(N)c(-c4ccccc4)c(=O)[nH]3)n2)cc1OC,2,i,i,i,-4
Cc1noc(C(=O)Nc2ccc3c(c2)OCO3)c1Cl,2,i,i,i,-2
Cc1ccc(-c2cc(C(F)F)nc(NCc3cccnc3)n2)cc1,-3,i,i,i,-14

# Next structures.
SMILES,FPR ligand,VCAM-1 down,VCAM-1 down imaging,VCAM-1 augmentation,FPRL1 binder
COc1ccccc1NC(=O)CN1C(=O)CCS(=O)(=O)c2ccccc21,-6,.,.,.,-3
O=C(Nc1ccc2c(c1)OCO2)c1cc(C2CC2)on1,-2,.,.,.,-2
COc1ccc(C2N3CC4(C)CN2CC(C)(C3)C4=O)cc1OC (centres undefined),3,.,.,.,0
COC(=O)c1ccc(Nc2cc(C)nc3nc(C)nn23)cc1,4,.,.,.,0
CC(C)N(C(=O)CSc1nnc(-c2cc3ccccc3cc2O)n1Cc1ccco1)C(C)C,9,i,i,i,-5
CCn1nccc1C(=O)Nc1cc(Cl)ccc1Cl,0,i,i,i,-1
O=C(c1cc(C2CC2)on1)N1CCN(C(c2ccccc2)c2ccccc2)CC1,-2,i,i,i,4
CC(=O)c1cc(-c2ccccc2)n(CC(=O)N2CCC(N3CCCCC3)CC2)c1C,0,i,i,i,2
Cc1ccccc1NC(=O)C1CCCN(S(=O)(=O)c2cnc[nH]2)C1 (centres undefined),-4,i,i,i,-4
COCCNC(=O)CSCc1nc(-c2ccc(SC)cc2)oc1C,0,.,.,.,-1
O=C1c2ccccc2C(O)(Cc2ccccc2)N1Cc1ccco1 (centres undefined),13,i,i,i,11
O=P(O)(O)CCP(=O)(c1ccccc1)c1ccccc1,-2,.,.,.,-2
CCOC(=O)c1ccc(N2Cc3cc(C)c(C)cc3C2)cc1O,-3,i,i,i,2
COc1ccc(OC)c(-c2cc(C(=O)Nc3c(C)nn(Cc4ccccc4C)c3C)no2)c1,2,.,.,.,-16
CCn1ncc(C2=NOC(C(=O)NCCc3ccccc3)C2)c1C (centres undefined),-6,.,.,.,0
CN(CC(=O)NCc1ccc2c(c1)OCO2)S(=O)(=O)c1ccc(Br)s1,-2,.,.,.,-11
Clc1ccc(Cc2nnc(-c3cccs3)o2)cc1,-1,.,.,.,0
CC(=O)SCCC(=O)Nc1ccccc1,10,i,i,i,-2
CC(C)OCCCNC(=O)CNC(=O)c1cccs1,-2,.,.,.,5
CCC(=O)Nc1nonc1-c1nc2ccccc2n1CCC(C)C,-9,.,.,.,-3
CCOC(=O)CSc1nc(NCc2ccco2)c2ccccc2n1,-7,.,.,.,14
Cc1ccc(C2C3=C(CC(C)(C)CC3=O)Nc3[nH]c(=S)[nH]c(=O)c32)cc1 (centres undefined),35*,.,.,.,-3
COc1ccc(OC)c(-n2c(C)nc3cc(C(=O)O)ccc32)c1,4,.,.,.,14
NC(=O)CSc1nnc(-c2ccc(O)cc2)n1Cc1ccco1,-5,i,i,i,-3
CCC(=O)N1CCc2cc(Br)cc(S(=O)(=O)NCCN3CCOCC3)c21,0,.,.,.,10
CCOC(=O)C(NC(=O)N1CCCCC1)(c1ccccc1)C(F)(F)F (centres undefined),0,.,.,.,2
Cc1ccsc1C1NC(=O)c2c(sc3c2CCN(C)C3)N1 (centres undefined),-7,.,.,.,-4
COc1cc(C2C(C(=O)Nc3ccccc3OC)=C(C)Nc3ncnn32)ccc1O (centres undefined),-6,.,.,.,-2
CCOC(=O)C1CCCN(C(=O)c2cn(CC)c(=O)c3cc(OC)c(OC)cc23)C1 (centres undefined),-5,.,.,.,2
c1ccc(OCc2nc3ccccc3[nH]2)cc1,-2,i,i,i,-1
COc1ccc(OC)c(NC(=O)CSc2nnc(CNC(=O)c3ccco3)o2)c1,0,.,.,.,10
COc1ccc(Nc2nc(Nc3ccc(OC)cc3)nc(-n3[nH]c(=O)c(C)c3C)n2)cc1,4,i,i,i,-5
CCN(CCCNC(=O)C1CCN(S(=O)(=O)c2cnc[nH]2)CC1)c1cccc(C)c1,0,.,.,.,-1
Cc1cc2cc(CN3C(=O)c4ccccc4C3=O)ccc2n1C,1,.,.,.,-1
Cc1ccc(CNC(=O)CCS(=O)(=O)c2cc(Br)cc3c2N(C(=O)C2CC2)CC3)o1,10,.,.,.,2
O=C(NCCCN1CCN(c2ccccc2F)CC1)Nc1ccc(F)cc1,-1,.,.,.,23
CCOC(=O)CC(=O)CSc1ccc2nnc(-c3ccccc3)n2n1,8,.,.,.,-3
COc1ccc(NC(=O)C2C3C=CC4(CN(Cc5cccnc5)C(=O)C24)O3)c(OC)c1 (centres undefined),-13,.,.,.,-2
COc1ccc(/C(O)=C2/C(=O)C(=O)N(CCN3CCOCC3)C2c2cccnc2)cc1OC (centres undefined),-1,.,.,.,5
Cc1oc2cc(O)ccc2c(=O)c1Oc1ccc2ccccc2c1,-10,.,.,.,-4
CC1=C(C(=O)NCc2ccccc2)C(c2ccccc2OCC(N)=O)NC(=O)N1 (centres undefined),3,i,i,i,-1
Cc1ccc2c(c1)c(C)c(C)n2CC(O)CN1CCCCC1C (centres undefined),-16,.,.,.,-2
CCC(=O)N1CCc2cc(S(=O)(=O)NC(C(=O)NC(C)c3ccccc3)C(C)C)ccc21 (centres undefined),-4,.,.,.,5
CCOC(=O)c1cc(-c2ccccc2)sc1N,13,i,i,i,-2
COc1cc(C(c2sc3nc(C)nn3c2O)N2CC(C)CC(C)C2)cc(OC)c1OC (centres undefined),0,i,i,i,1
O=C(CSc1ncnc2ccccc12)N1CCCC1,-4,.,.,.,4
Cc1ccc(NC(=O)CSc2nnc(-c3cnccn3)n2Cc2ccco2)cc1C,-3,i,i,i,4
O=C(CSc1ncnc2c1nnn2-c1ccc(F)cc1)NCC1CCCO1 (centres undefined),-6,.,.,.,3
CCNc1c2c3c(cccc3n(C)c1=O)C(=O)c1ccccc1-2,?,.,.,.,?
CCN(CC)S(=O)(=O)c1ccc(F)c(C(=O)NCCC(C)C)c1,-4,i,i,i,-1
CCOC(=O)c1ccc(NC(=O)CS(=O)(=O)c2cn(CC)c3ccccc23)cc1,11,.,.,.,0
O=C1NC(NS(=O)(=O)c2ccccc2)(C(F)(F)F)C(=O)N1Cc1cccnc1 (centres undefined),0,.,.,.,1
O=C(NC1CC1)c1ccc(CS(=O)(=O)c2c(Cl)cccc2Cl)o1,-1,.,.,.,-4
O=C(CSc1nnc(-c2c[nH]c3ccccc23)o1)N(Cc1ccccc1)c1ccc(F)cc1,-6,i,i,i,-4
Cc1ccc(SCCC(=O)N(C)C)cc1,-1,i,i,i,4
CCCCOC(=O)C1=C(C)Nc2ncnn2C1c1cccc(OC)c1 (centres undefined),4,.,.,.,5
O=C(c1cc(S(=O)(=O)N2CCCCC2)ccc1F)N1CCCCC1,3,.,.,.,2
O=C1CSC(c2cn(-c3ccccc3)nc2-c2cc3ccccc3oc2=O)N1Cc1ccco1 (centres undefined),2,.,.,.,10
Cc1cc(C)n2nc(S(=O)(=O)NC3CCCCC3)nc2n1,-1,.,.,.,0
Cc1ccc(/C=c2\s/c(=C(/C#N)C(=O)N3CCCC3)n(Cc3ccco3)c2=O)s1,16,i,i,i,4
COc1ccc(NC(=O)c2nnn(Cc3ccc(SC)cc3)c2N)c(OC)c1,-1,.,.,.,-2
O=C(Cn1c(SCC(=O)N2CCCc3ccccc32)nc2ccccc21)N1CCCC1,-3,i,i,i,-7

# Whole records from above. Values in the order: FPR ligand	VCAM-1 down	VCAM-1 down imaging	VCAM-1 augmentation	FPRL1 binder
# O=C1CSC(c2cn(-c3ccccc3)nc2-c2cc3ccccc3oc2=O)N1Cc1ccco1 (centres undefined) as listed: 2	.	.	.	10
# CCc1ccc(NC(=O)c2cccnc2)cc1 as listed: 6	i	i	i	0
# O=C(Nc1ccc2c(c1)OCO2)c1cc(C2CC2)on1 as listed: -2	.	.	.	-2
# C=CCOc1ccc(/C(CC)=N/O)c(OC)c1 as listed: -22	i	i	i	-33
# Cc1cc(C)n2nc(S(=O)(=O)NC3CCCCC3)nc2n1 as listed: -1	.	.	.	0
